Autofluor counter: flagged as autofluorescent in microsphere protease counterscreen; 360,000 tested, 3.1% active; compound autofluorescence counterscreen, microsphere flow cytometry; stronger effect = higher value; fluorescence intensity (test concentration not listed); AID 624483;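 active = at least 3 SD above the mean of all compounds, about 16000 in these data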;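 note: 100 nL of 1 mM stock went into each well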
* hit, by the source's call.

molecule | Autofluor counter
CCOC(=O)C1=CC[C@@H](c2ccccc2)N(S(=O)(=O)c2ccc(C)cc2)[C@H]1c1ccccc1C | 4367
CC1Oc2ccc(C#N)cc2N(Cc2ccc(F)cc2)C1=O (configuration not stated) | 3439
CC(C)(C)c1ccc(CC(=O)N2CCC2(C)C(=O)NS(=O)(=O)c2ccccc2C(F)(F)F)cc1 (configuration not stated) | 3540
CN(c1ccccc1)S(=O)(=O)c1cc(C(=O)NCc2ccco2)ccc1Cl | 3909
C[C@H]1CN([C@@H](C)CO)C(=O)CCCn2nncc2CO[C@@H]1CN(C)C(=O)Nc1cccc2ccccc12 | 4000
O=C(Nc1ccccc1Cl)c1ccccc1CC(O)(c1ccccc1)c1ccccc1 | 4138
CCCOc1ccc(F)cc1-c1cc(C(=O)NCCOC)[nH]n1 | 3766
COc1cccc(S(=O)(=O)N(C)C[C@H]2Oc3ncc(Br)cc3C(=O)N([C@@H](C)CO)C[C@@H]2C)c1 | 3315
CNc1cncc(-c2cccc(O)c2)n1 | 4100
O[C@@H]1C[C@H](c2ccc(Cl)cc2)N(Cc2cccs2)C[C@H]1n1cc(-c2ccc(F)cc2)nn1 | 2900
CSc1ccc(CN2CCC2(C)C(=O)Nc2ccc3c(c2)OCO3)cc1 (configuration not stated) | 3430
COCCN1C[C@@H](CO)O[C@@H](n2cnc3c(NCCN(C)C)ncnc32)C1 | 3501
COCCN(Cc1ccc(C)cc1)C(=O)[C@H]1O[C@@H](n2ccc(N)nc2=O)[C@H](O)[C@@H]1O | 5864
Cc1c(C(=O)NCc2ccccc2C(F)(F)F)sc(=O)n1Cc1cccc(C(F)(F)F)c1 | 5598
CCOC(=O)[C@]12CCCC=C1N(Cc1ccc3c(c1)OCO3)C(=O)[C@H](CC(=O)N1CCSCC1)C2 | 5564

Later entries
molecule | Autofluor counter
CC(=O)Nc1ccc(-c2ccnc3c2CC(C)(C(=O)NCCC(F)(F)F)O3)cc1 (configuration not stated) | 3705
COc1ccc(CN2C(=O)c3cccc4cccc(c34)C2c2nc3ccccc3[nH]2)cc1 (configuration not stated) | 4540
COc1ccc(Cc2nc3ccc(C(=O)N4CCCCC4CO)cc3o2)cc1OC (configuration not stated) | 3930
Clc1ccccc1-c1cnc2sc(NCc3ccc4c(c3)OCO4)nn12 | 3853
CN1CCC(N2CCN(C3CN(CCc4ccccc4)S(=O)(=O)C3)CC2)CC1 (configuration not stated) | 4360
CCNC(=O)C1(C)CCN(C(=O)c2ccc(OC)cc2OC)C1 (configuration not stated) | 2982
O=C1NCN(c2ccccc2)C12CCN(C(CCc1ccccc1)c1nnnn1C1CCCCC1)CC2 (configuration not stated) | 5706
CC(C)CC1NC(=O)c2cccnc2-n2c1nc1ccccc1c2=O (configuration not stated) | 3502
N#Cc1cccc(C(Br)S(=O)(=O)c2ccccc2)c1 (configuration not stated) | 2963
COc1ccc(OC)c(C(O)c2ncc(-c3cccc4ccccc34)[nH]2)c1 (configuration not stated) | 2840
CC(O)(c1ccncc1)c1nc(-c2cccc(C(F)(F)F)c2)cs1 (configuration not stated) | 4000
COc1ccc(C(c2nnnn2C(C)(C)C)N2CCN(C/C=C/c3ccccc3)CC2)cc1 (configuration not stated) | 5468
O=C1CSC(=S)N1N=Cc1cccc(OCc2ccccc2)c1 | 2903
CC(C)(C)Cc1c(-c2ccc(Cl)cc2)nc2ccc(Br)cn12 | 3815
CCCCNC(=O)C[C@@H]1C[C@@]2(C(=O)OC)CCCCC=C2N(Cc2ccc(Cl)cc2Cl)C1=O | 4359

(continued)
molecule | Autofluor counter
COc1ccc(OCC(=O)N2CCc3ccccc32)c([N+](=O)[O-])c1 | 3811
CC(O)(c1cccnc1)c1nc(-c2cccc(C(F)(F)F)c2)cs1 (configuration not stated) | 3529
CS(=O)(=O)c1ccc(Cl)c(NC(=O)CSc2nnc3n2CCCCC3)c1 | 3637
NC(CSC(c1ccccc1)(c1ccccc1)c1ccc(-c2ccccc2)cc1)C(=O)O (configuration not stated) | 3351
CCCCNC(=S)N(CCCO)Cc1cc2cc3c(cc2[nH]c1=O)OCO3 | 2911
C=Cc1ccc(Cn2c(C)c(C(=O)NCc3ccc(Cl)c(Cl)c3)sc2=O)cc1 | 5233
CC1(C(=O)Nc2ccc3c(c2)OCCO3)CCN1C(=O)c1cccc(F)c1 (configuration not stated) | 4027
COc1ccc(Cc2c(-c3ccc(C)cc3)nc3c4ccccc4ccn23)c(C)c1 | 6043
CC1(C(=O)NS(=O)(=O)c2cccc(C#N)c2)CCN1C(=O)c1ccccc1CCc1ccccc1 (configuration not stated) | 3534
C[C@@H]1CN([C@H](C)CO)C(=O)CCCn2cc(nn2)CO[C@H]1CN(C)S(=O)(=O)c1ccc(F)cc1 | 4359
COCCNc1nc(NCc2cnc(C)cn2)c2sccc2n1 | 3829
CC1(C(=O)NS(=O)(=O)c2ccc(Cl)cc2)CCN1C(=O)C1(c2ccccc2)CCCC1 (configuration not stated) | 3477
O=C(Nc1ccccc1)Nc1nnc([C@H]2C[C@H](O)[C@@H](CO)O2)s1 | 2905
C#CCNC(=O)C[C@@H]1C[C@@]2(C(=O)OCC)CCCC=C2N(Cc2ccc3c(c2)OCO3)C1=O | 5546
COc1ccc(C(O)c2nc(-c3cnc4ccccc4c3)cs2)cc1 (configuration not stated) | 3086

Three entries drawn at random from the list so far, as already listed:
molecule | Autofluor counter
CC(=O)Nc1ccc(-c2ccnc3c2CC(C)(C(=O)NCCC(F)(F)F)O3)cc1 (configuration not stated) | 3705
COc1ccc(Cc2nc3ccc(C(=O)N4CCCCC4CO)cc3o2)cc1OC (configuration not stated) | 3930
COCCNc1nc(NCc2cnc(C)cn2)c2sccc2n1 | 3829

Later entries
molecule | Autofluor counter
CC1=C(C(=O)N(C)C)CC(CC(=O)NC(c2ccccc2)c2ccccc2)C(=O)N1CCCN1CCCC1=O (configuration not stated) | 2952
Cn1c(=O)c2cc(NC(=O)CC(C)(C)C)ccc2n1-c1ccccc1F | 3952
Cc1onc(-c2ccccc2)c1C(=O)OCC(=O)Nc1ccccc1Cl | 4333
N#Cc1nc2ccccc2n1OCc1ccccc1 | 3936
Cc1cccc(C)c1NC(=O)c1csc([C@@H]2O[C@H](CO)[C@H](O)[C@H](O)[C@H]2O)n1 | 2862
Oc1cccc2cc(Nc3ccccc3)cnc12 | 3639
Cc1cc(Br)ccc1NC(=O)CN(C)C(=O)c1ccccc1OCc1c(C)noc1C | 4062
O=C(CCc1ccccc1)N1Cc2cc(-c3cccc(F)c3)ccc2-n2nncc2C1 | 5979
COc1ccc(C(O)c2nc(/C=C/c3ccc(C(F)(F)F)cc3)cs2)cc1 (configuration not stated) | 3503
COCOc1cccc(CN2CCC2(C)C(=O)Nc2cc(OC)ccc2OC)c1 (configuration not stated) | 3452
Cc1ccc(SC[C@H](C)CN2CCC(NC(=O)OCc3ccccc3)CCC2=O)cc1 (some centres not stated) | 4208
O[C@@H]1CN(CC2CCCCC2)[C@@H](c2ccccc2)C[C@H]1n1cc(-c2ccc(F)cc2)nn1 | 5124
COc1ccc([N+](=O)[O-])c(C=CC(=O)c2ccccn2)c1 | 3623
Cc1cccnc1C(c1ccc(F)cc1)N(C)C(=O)C1CCN(CCOc2ccc(Cl)cc2Cl)CC1 (configuration not stated) | 4030
CCOC(=O)[C@]12CCC=C1N(Cc1cccc3ccccc13)C(=O)[C@H](CC(=O)NCc1cccc3ccccc13)C2 | 6861

Rewritten with each value named: 4 of the compounds above.
Oc1cccc2cc(Nc3ccccc3)cnc12
- Autofluor counter: 3639
Cc1cc(Br)ccc1NC(=O)CN(C)C(=O)c1ccccc1OCc1c(C)noc1C
- Autofluor counter: 4062
O=C(CCc1ccccc1)N1Cc2cc(-c3cccc(F)c3)ccc2-n2nncc2C1
- Autofluor counter: 5979
COc1ccc(C(O)c2nc(/C=C/c3ccc(C(F)(F)F)cc3)cs2)cc1 (configuration not stated)
- Autofluor counter: 3503

The listing continues.
molecule | Autofluor counter
Cc1ccc(C(=O)N(Cc2ccco2)c2c(N)n(Cc3ccccc3)c(=O)[nH]c2=O)cc1 | 3733
COc1cccc(Nc2nc(C(N)C(C)C)cs2)n1 (configuration not stated) | 3918
CNC(=O)Oc1c(C)[nH]ccc1=O | 2760
CCCCCC(=O)N1C[C@@H](O)[C@H](n2cc(COC(=O)c3ccccc3)nn2)C[C@@H]1c1ccccc1 | 3438
Cc1cccnc1C1=NOC(Cc2ccccc2)C(=O)N1Cc1ccc2c(c1)OCO2 (configuration not stated) | 5452
OC(c1ccc(Cl)c(Cl)c1)c1ncc(-c2ccccc2Cl)[nH]1 (configuration not stated) | 2922
CC(C)=CCC[C@H](C)C[C@@H]1Cc2[nH][nH]c(=O)c2[C@H](c2ccc(F)cc2)O1 | 6355
C(=C\c1ccccc1)/CN1CCN(C(c2ccccc2)c2nnnn2C2CCCC2)CC1 (configuration not stated) | 5842
COc1cccc(-c2cc3nc(NCCN4CCCC4)n(C)c(=O)c3s2)c1 | 4208
Cc1ccccc1-c1ccc2c(c1)C1c3c(-c4ccccc4)nnn3-c3ccccc3C(=O)N1CC2 (configuration not stated) | 4161
CC(C)(CO)CN1CCC(n2nccc2NC(=O)C2CCOC2)CC1 (configuration not stated) | 3981
CC(C)C1Cc2[nH]c(=S)[nH]c(=O)c2C(c2ccc(F)cc2)O1 (configuration not stated) | 5814
C=CCN(CC=C)Cc1cc(=O)oc2cc(OC)c(Cl)cc12 | 4338
COc1ccc(Br)cc1CNC(=O)C1CCCN(S(=O)(=O)N2CCC(C)CC2)C1 (configuration not stated) | 3910
CCOC(=O)[C@]12CCC=C1N(Cc1cccc3ccccc13)C(=O)[C@H](CC(=O)NCc1cccc(C(F)(F)F)c1)C2 | 4124

Further records follow.
molecule | Autofluor counter
Cc1ccc(S(=O)(=O)N(C)C[C@@H]2OCCCC[C@@H](C)Oc3ccc(NS(=O)(=O)c4c(C)noc4C)cc3C(=O)N([C@H](C)CO)C[C@@H]2C)cc1 | 3796
COc1ccc(-c2csc(C(NC(C)=O)c3cccc(F)c3)n2)cc1 (configuration not stated) | 2889
Cc1ccc(C)c(OCC(=O)OCc2csc(CC(=O)Nc3ccccc3C)n2)c1 | 3579
O=C(C1CCCCC1)N1C[C@@H](n2cc(C3CC3)nn2)[C@H](O)C[C@@H]1c1ccc(Cl)cc1 | 3641
CC(=O)Nc1cccc(NC(=O)C2CCCO2)c1 (configuration not stated) | 3668
FC(F)(F)c1ccccc1Cc1c(-c2cccc(Br)c2)nc2c3ccccc3ccn12 | 7698
Cc1sc2nc(-c3ccccc3F)oc(=O)c2c1C | 4359
CN1CCN(C2CN(Cc3ccc([N+](=O)[O-])cc3)S(=O)(=O)C2)CC1 (configuration not stated) | 3711
Cc1cc(O)ccc1-c1ccc2nncn2c1 | 3559
COc1cccc(CN2CCC2(C)C(=O)Nc2cccc(NS(C)(=O)=O)c2)c1OC (configuration not stated) | 3563
CCCCC[C@@H](C)N1C[C@H](COCc2ccccc2)Oc2cc(N3CC[C@H](N(C)C)C3)ccc2S1(=O)=O | 6116
C[C@@H](NC(=O)[C@@H]1CCCN1C(=O)OC(C)(C)C)c1ccccc1 | 4398
CCOC(=O)[C@]12CCC=C1N(Cc1ccc3c(c1)OCO3)C(=O)[C@H](CC(=O)NCc1cccs1)C2 | 5473
CC1CCC(N(C)C(=O)CN2C(=O)NC(c3ccccc3)(c3ccccc3)C2=O)CC1 (configuration not stated) | 3050
COc1ccc(S(=O)(=O)N2CCCCC2c2cc(C(=O)NCc3cccnc3)no2)cc1 (configuration not stated) | 3787

Additional results
molecule | Autofluor counter
CC(C)C#Cc1cnc2c(c1)C(=O)N([C@@H](C)CO)C[C@@H](C)[C@H](CN(C)Cc1cccc(F)c1)O2 | 3556
COCCCNc1ccn2nc(-c3ccccc3)cc2n1 | 3495
CC1(C(=O)O)CCCN(C(=O)c2cc3ccccc3s2)C1 (configuration not stated) | 3792
Cc1ccc([C@H]2N[C@]3(CCCN(Cc4ccc(Cl)cc4)C3=O)[C@H]3C(=O)N(C)C(=O)[C@@H]23)cc1 | 3541
CCc1ccc([C@@H]2C[C@H]3[C@@H](CN2S(=O)(=O)c2ccc(C)cc2)C(=O)C[C@@H](c2ccccc2F)N3S(=O)(=O)c2ccc(C)cc2)cc1 | 3795
CCn1cc(/C=C(\NC(=O)c2ccccc2F)C(=O)N2CCN(C)CC2)c2ccccc21 | 3130
O=C1NC[C@H](CCCCN2CCN(Cc3ccccc3)C(=O)C2=O)N(Cc2ccccc2)C1=O | 5642
COc1ccc(C(C#N)CC(=O)c2ccc3c(c2)OCO3)cc1OC (configuration not stated) | 2927
CC(=O)C1=CCC(c2cccs2)N(S(=O)(=O)c2ccc(C)cc2)C1 (configuration not stated) | 6266
CCN(CC)C(=O)C1=C(C)N(CCCN2CCCC2=O)C(=O)C(CC(=O)NC2CCCCC2)C1 (configuration not stated) | 2874
Cc1cn([C@H]2C[C@H](O)[C@@H](CCC(=O)NCCc3cccs3)O2)c(=O)[nH]c1=O | 6513
COc1cccc(C(O)c2nc(/C=C/c3ccccc3)cs2)c1 (configuration not stated) | 2881
C[C@@H]1CN([C@@H](C)CO)C(=O)c2cc(/C=C/c3ccccc3)cnc2O[C@@H]1CN(C)S(=O)(=O)c1ccc(F)cc1 | 3722
COc1cccc(C=C(C(C)=O)C(=O)c2ccccc2)c1 | 6450
COc1ccc(S(=O)(=O)N2CCC[C@H]2C(=O)N2CCC[C@H]2C(=O)NCc2ccccn2)cc1C | 5244

Next part.
molecule | Autofluor counter
CCCCC(=O)N(C)c1c(C)nc2ccc(C(=O)NCc3ccccc3OC)cn12 | 4405
COCCCNC(=O)c1ccc2nc([C@@H]3O[C@H](CO)[C@H](O)[C@H](O)[C@H]3O)[nH]c2c1 | 3888
S=C(NCCc1ccccc1)N1Cc2cc(-c3ccccc3)ccc2-n2nncc2C1 | 5567
CC(C)N(C(=O)Cn1cc(S(=O)(=O)CC(=O)NCCc2ccccc2)c2ccccc21)C(C)C | 4103
CCCCc1c(-c2ccc(F)cc2)ncn1CCc1ccccc1OC | 5513

Compound activity from PubChem.

Not all compounds are listed (hit frequency here may not be typical).
